Assay outcomes from PubChem BioAssay.
Menin MLL FP FL: inhibitors of human menin-MLL interaction, wild-type MLL peptide; Fluorescence polarization, fluorescein-MLL peptide displacement from menin; FP activity change, % at 61.4 µM; 290,000 tested, under 10 active; AID 1766; inconclusive = falling polarisation curve, or a change in total fluorescence; inactive = total fluorescence flat and polarisation flat or rising; no compound was filed as active; the % refers to the polarisation; negative = inhibition;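 note: % of control where 0% means no effect; inhibitors lower the polarisation; unlabelled MLL peptide was the positive control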
D2 PAM: positive allosteric modulators of human D2 dopamine receptor; DiscoveRx D2 beta-arrestin cells, luminescence, 90 min; 100% = 57 uM dopamine signal; potentiation, % (test concentration not listed); 360,000 compounds, 0.23% hits; active = potentiation of 50% or more; inconclusive = 30% to 50%; inactive = 30% or less;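 note: compound concentration not given in the record; tested on top of an EC20 dose of dopamine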
Target sequence (P14416 whole entry, looked up): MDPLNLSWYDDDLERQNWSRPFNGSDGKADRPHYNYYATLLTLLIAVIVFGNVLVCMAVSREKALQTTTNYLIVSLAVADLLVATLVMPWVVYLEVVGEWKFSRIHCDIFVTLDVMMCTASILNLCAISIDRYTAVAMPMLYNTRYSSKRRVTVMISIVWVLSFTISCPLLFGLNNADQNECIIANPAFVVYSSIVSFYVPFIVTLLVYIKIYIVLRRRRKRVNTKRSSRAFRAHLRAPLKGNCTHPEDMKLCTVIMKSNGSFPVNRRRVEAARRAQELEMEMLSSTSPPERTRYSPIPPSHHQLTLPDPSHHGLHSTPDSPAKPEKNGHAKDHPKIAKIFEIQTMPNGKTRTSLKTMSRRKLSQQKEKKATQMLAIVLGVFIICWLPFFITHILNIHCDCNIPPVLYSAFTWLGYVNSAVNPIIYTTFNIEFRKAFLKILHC
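D2 cells co-treated with compound plus 50 nM dopamine (EC20) for 90 min at 37 deg C to detect potentiation. Beta-arrestin recruitment was read as enzyme-fragment luminescence after 1 h at ambient temperature. Full response was set by 57 uM dopamine.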
gsp agonist: gsp mutant agonism. gsp mutant cells, cAMP HTRF, 30 min; control for the full effect not named in the record. Potency, µM (highest dose often 76.9 µM), without a hit: at the top dose activation (cAMP increase), most hits filed as activators. 340,000 compounds, 0.13% hits. AID 624287; active = well fitted activation curve with a large enough effect; inconclusive = small, poorly fitted or top-dose-only effect, or another doubt; inactive = no such curve, though single readings can be large or run the other way; cell line not stated here;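 note: phosphodiesterase inhibitor Ro 20-1724 added with compounds to block cAMP breakdown; potency is the fitted concentration of half-maximal effect; nearly all actives have a fitted effect of over 60% in size; about a fifth of the inactives were tested at one dose only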
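Cells stably selected in G418 were plated at 2000/well, grown 16-24 hr, then given compounds in DMSO with the PDE inhibitor […] (300 uM solution added) for 30 min at 37C; cAMP was read by HTRF.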
TRPV1 potentiator: potentiators of human vanilloid receptor 1 (TRPV1); Q8NER1; TRPV1-expressing cells, Fluo-8 calcium influx, capsaicin EC20 potentiation; host cell line not named in the record; control for the full effect not named in the record; potentiation, % at 8.33 µM; 320,000 compounds, 0.02% hits; AID 540277; active means potentiation above 80%; inconclusive means 30% to 80%; inactive means below 30%; note: 0% is about no effect
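TRPV1-expressing cells were cultured overnight at 35.5C and loaded with Fluo-8 calcium dye for 40 to 90 min at room temperature. After a 10 s baseline, compound was added and calcium influx was read kinetically for 3 min (ex 480/em 520 nm).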
gsp antagonist: gsp mutant antagonism. 340,000 compounds, 0.4% hits. gsp-mutant cells, cAMP HTRF, 30 min; control for the full effect not named in the record. Potency, µM (titrated, usually from 76.9 µM), for the others: at the highest dose activity change, negative = inhibition, most hits filed as inhibitors; active = falling curve of any shape with a large fitted effect; inconclusive = falling curve, mostly with a smaller effect; inactive = flat or rising curve; cell line not stated here;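 note: intracellular cAMP measured with PDE inhibitor Ro 20-1724 present during compound exposure; potency is the fitted concentration of half-maximal effect; % is set by controls: 0 for no effect and ±100 for the full control effect; nearly all actives have a fitted effect of over 65% in size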
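Measurement of cellular cAMP by homogeneous time-resolved fluorescence following a 30 min compound exposure at 37C. The PDE inhibitor […] was present throughout; the assay buffer was DPBS with 0.05% BSA and 0.005% Tween 20.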
Sfp PPTase inh: blocks B. subtilis Sfp PPTase activity; AID 1490; Biochemical Sfp PPTase activity, qHTS; Q9F4F7; Potency, µM, for inactives: max response, negative = inhibition, usual class: inhibitors; 310,000 compounds, 3.5% hits; active = well fitted inhibition curve with a large enough effect; inconclusive = small, poorly fitted or top-dose-only effect, or another doubt; inactive = no such curve, though single readings can be large or run the other way;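 note: the enzyme is Sfp with the accession as filed and its product quenches rhodamine fluorescence; potency is the fitted concentration of half-maximal effect; 0% = enzyme reaction without inhibitor and -100% = no enzyme wells; top concentration of the series not given in the record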
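Fluorescence-quenching assay with 15 nM Sfp, 5 uM rhodamine-CoA and 12.5 uM BHQ-2-labelled ybbR peptide in pH 7.6 Hepes/MgCl2 buffer. Enzyme was pre-incubated with compound for 15 min at room temperature. Rate was taken from the 30-min fluorescence change (525/598 nm).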
ClpP mod: qHTS Assay for Activators of ClpP; ATP-dependent Clp protease proteolytic subunit (Bacillus subtilis (strain 168)), P80244; Potency, µM (titrated, usually from 57.5 µM), for inactives: at the highest dose activity change, negative = active; 340,000 compounds, 1.9% hits; purified B. subtilis ClpP, FRET peptide cleavage, 20 min; active = well fitted falling curve with a large enough effect; inconclusive = small, poorly fitted or top-dose-only effect; inactive = no such curve, though single readings can be large or run the other way; note: potency is the fitted concentration of half-maximal effect; the source files actives as falling curves though it sought activators and does not explain the sign; nearly all actives have a fitted effect of over 65% in size; many hits overshoot -100%
Target sequence (P80244 whole entry, looked up): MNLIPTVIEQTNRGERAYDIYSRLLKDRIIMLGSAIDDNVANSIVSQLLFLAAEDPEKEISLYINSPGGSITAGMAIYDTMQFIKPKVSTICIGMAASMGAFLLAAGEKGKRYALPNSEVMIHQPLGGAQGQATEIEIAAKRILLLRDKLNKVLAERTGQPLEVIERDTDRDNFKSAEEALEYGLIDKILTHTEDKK
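FRET quenching reversal measured ClpP activation: 10 microg/mL B. subtilis ClpP at pH 8 with the FRET-FV decapeptide, read at 430 nm after 320 nm excitation. The 20-min minus 0-min signal was scaled between DMSO/no-enzyme wells and ADEP (5.8 microM final).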
* = called active by the depositor; ? = inconclusive; . = no result given; & = joins results of further samples; [ ] = another dose, or the depositor's remark.

SMILES	Menin MLL FP FL	D2 PAM	gsp agonist	TRPV1 potentiator	gsp antagonist	Sfp PPTase inh	ClpP mod
Cc1cc(C(=O)O)c(C)n1-c1ccccc1	0.7	-11	5%	-11	7%	21%	-3.3%
CCOc1cc(C(=S)N2CCOCC2)ccc1OS(=O)(=O)c1ccc(NC(C)=O)cc1	-0.4	-16	-5%	-17	?	3%	-1.1%
O=C(N[C@@H](Cc1c[nH]c2ccccc12)C(=O)O)C1CCN(S(=O)(=O)c2cccs2)CC1	0.4	-6	0%	4	6%	17%	-6.4%
CN(C)c1ccc(S(=O)(=O)NCC(=O)OCC(=O)Nc2cc(Cl)cc(Cl)c2)cc1[N+](=O)[O-]	0.5	-8	3%	-4	-8%	26%	-0.7%
CCN(CC)C(=O)CN(C#N)c1nc(OC)nc(N(C)C)n1	1.0	-4	1%	-6	-5%	-3%	-0.8%
O=C(CC(=O)c1ccccc1)Nc1ccccc1C(F)(F)F	-16	-2	-11%	?	-11%	14%	.
O=C(Nc1cccc2cccnc12)c1cccc([N+](=O)[O-])c1	7.0	0	0%	1	-11%	-2%	-1.1%
O=C(CSc1nnc(-c2cccnc2)o1)Nc1cccc(Cl)c1	.	-1	-9%	-7	-1%	4%	.
COc1ccc2c(c1)C(C)=CC(C)(C)N2S(=O)(=O)c1ccc(Br)cc1	-2.1	-3	3%	3	19%	5%	.
O=C(CN1CCOCC1)N/N=C/c1ccco1	-0.9	-9	-9%[15.4 µM]	-3	.	10%	.
O=C1c2ccccc2C(=O)N1Cc1nc2ccccc2c(=O)n1CCN1CCOCC1	.	23	-35%[inhibitor]	.	-5%	.	1.0%
Cc1ccc(-c2cc(C(=O)NCC3CCCO3)no2)cc1 (stereo not given)	1.4	-9	-15%	-20	4%	3%	0.7%
O=C(C#Cc1ccccc1)Nc1ccc(F)cc1	1.1	-24	-56%	2	-5%	-20%	.
COc1ccccc1C(=O)NCCc1c(C)[nH]c2c(C)ccc(F)c12	2.4	-3	-2%	-16	-8%	12%	0.5%
CC(=O)N1N=C(c2ccccc2)OC12CCCC2	-0.3	-1	-16%	1	6%	6%	3.5%
CCOc1ccccc1NC(=O)CSc1ccc(-c2ccco2)nn1	.	29	-18%[15.4 µM]	6	-9%	50µM*	-3.8%
COCCNC(=O)/C(C#N)=C/c1ccc(O)c([N+](=O)[O-])c1	0.2	-27	?	15	-16%	16%	1.5%
COC(=O)C1=C(C)NC2=C(C(=O)CCC2)C1c1coc2ccccc2c1=O (stereo not given)	-2.1	9	1%	13	1%	8%	-2.3%
Cc1cc(C)nc(SC2=CS(=O)(=O)c3ccccc32)n1	-5.1	-13	6%	20	-15%	-5%	1.8%
CCOc1ccc2nc(/N=C/c3c(C)[nH]n(-c4ccc(C)cc4)c3=O)sc2c1	4.1	-4	-44%[inhibitor]	1	4%	8%	-2.1%
COc1ccc(C)cc1S(=O)(=O)n1c([N+](=O)[O-])cnc1C	-2.7	-2	-43%[inhibitor]	-8	12%	-11%	.
CN1CCN(C(=O)/C=C/c2cn(-c3ccccc3)nc2-c2ccc3c(c2)OCCO3)CC1	-0.8	-17	22%	-4	-18%	1%	.
O=C(/C=C(\c1ccccc1)n1cncn1)c1ccccc1	1.0	-5	13%	-8	8%	21%	-2.6%
O=C(CN1CCN(CC(=O)Nc2ccccc2Cl)CC1)Nc1ccc(F)c(F)c1	-4.0	-10	-1%	-6	-7%	-4%	-2.6%
Cc1ccc(OCC(=O)NNC(=O)CCC(=O)NCc2ccccc2)cc1	2.0	-12	8%	.	12%	8%	0.5%
Cc1nc(NC(=O)/C=C/c2ccccc2)sc1C(=O)N1CCCCC1	0.1	5	19%	-14	0%	0%	-2.0%
COc1cc(C(O)c2nc3ccccc3s2)cc(OC)c1OC (stereo not given)	0.0	-2	-1%	5	6%	23%	0.7%
COc1ccc(Cl)cc1S(=O)(=O)N1CCN(C(=O)c2ccco2)CC1	0.8	-25	-2%	-5	-1%	5%	0.4%
COc1ccc(Cn2nnnc2C(c2ccccc2Cl)N2CCN(C)CC2)cc1 (stereo not given)	-0.1	-10	0%	-2	6%	14%	-5.6%
Nc1ncnc2c1ncn2[C@@H]1O[C@H](CNCC(O)CO)[C@@H](O)[C@H]1O (stereo not given in full)	.	-4	.	.	12%	.	-0.2%
CN(C)c1ccc(C2CNC(c3ccc(Cl)c([N+](=O)[O-])c3)c3[nH]c4ccccc4c32)cc1 (stereo not given)	3.0	1	?	-2	-12%	5%	-7.8%
CNC(=O)c1sc(=S)n(-c2ccc(OC)cc2)c1N	-0.2	5	-13%	2	0%	26%	.
N#Cc1ccc(NC(=O)c2cccs2)nc1	1.1	-1	-6%	-10	6%	18%	.
O=C(Nc1cccc(S(=O)(=O)N2CCCCC2)c1)c1ccc(Cl)nc1	.	-1	-17%	.	50µM*	.	0.1%
O=C(O)C1=C[C@@H](C2CCCCC2)C[C@@H](OCc2ccc(CO)cc2)O1	-1.2	-1	1%	1	-2%	10%	-2.0%
CCN(CC)S(=O)(=O)c1cc(NS(=O)(=O)c2cccc(Cl)c2)ccc1C	9.2	17	1%[15.4 µM]	0	-16%	10%	-0.6%
Cc1cccc2cc(COC(=O)c3ccco3)c(=O)[nH]c12	1.5	7	-19%	7	1%	-21%	-15%
CC1CN(C(=O)c2cc(S(=O)(=O)N3CCN(c4ccccc4)CC3)ccc2Cl)CC(C)O1 (stereo not given)	.	-15	-6%	-14	3%	.	0.2%
COc1cc(/C(C)=N/NC(=O)C(O)(c2ccccc2)c2ccccc2)ccc1O	0.2	-8	-31%[15.4 µM]	17	-1%	?	.
Cc1noc(C)c1COc1ccccc1C(=O)N(C)Cc1ccc(C(C)(C)C)cc1	.	-12	-36%[inhibitor]	-18	50µM*	.	-0.4%
C=CCc1ccc(OCc2ccc(C(=O)Nc3ccc(NC(C)=O)cc3)o2)c(OC)c1	5.2	10	-31%[inhibitor]	10&1	-22%	-18%	-9.3%&-19%
C=C(C)C(=O)Nc1nnc(-c2cccs2)s1	1.0	16	32%	0	8%	-3%	-1.6%
CC(C)NC(=O)N(C)C[C@H]1Oc2ccc(NS(=O)(=O)c3cccs3)cc2C(=O)N([C@H](C)CO)C[C@@H]1C	.	-5	11%	.	9%	.	-0.8%
COc1ccc(CCN2C(=O)C3C4CC(C5C(C(N)=O)=NOC45)C3C2=O)cc1OC (stereo not given)	0.1	-15	5%	-1	11%	14%	1.6%
Cn1c(=O)n(C)c2cc([N+](=O)[O-])c(N3CCN(CCO)CC3)cc21	-6.2	-9	16%	6	2%	9%	.
Cc1cccc(NC(=S)NC2CCCCCC2)c1C	5.2	-19	1%	-7	8%	4%	-1.6%
CC1=C(C(=O)NC2CC(C)(C)Cc3c2cnn3-c2ccc(C)cc2)OCCO1 (stereo not given)	.	-8	43%	-13	-16%	16%	-0.5%
CCCOc1ccc(N2CC(C(=O)Nc3ccccc3C(=O)NCc3ccco3)CC2=O)cc1 (stereo not given)	-1.1	-2	-14%	1	-28%	20%	-8.0%
C#CCOCCOCCOCCNc1nc(OC)nc(N2CCN(C(=O)[C@H](CCCCN)n3cc(C(N)CO)nn3)CC2)n1 (stereo not given in full)	4.7	.	.	-43	.	-6%	.
O=C(O)C1SCCN1S(=O)(=O)c1ccc2ccccc2c1 (stereo not given)	1.1	-2	-2%	24	6%	2%	-0.1%
COCc1cc(Sc2ccc(Br)cc2)nc(-c2ccccc2)n1	?	-15	2%	5	2%[15.4 µM]	8%	-0.9%
Nc1cc(C(=O)OCC(=O)NCc2ccco2)ccc1Cl	2.0	1	-1%	15	-5%	?	-10%
COc1ccc(OCC(=O)N/N=C/c2ccncc2)cc1	-4.7	0	-4%	3	-2%	8%	.
Nc1nc2nc[nH]c2c(=O)[nH]1	.	-10	.	14	-2%	.	-1.3%
O=C1CCc2cc(NS(=O)(=O)c3ccc(F)cc3)cc3c2N1CC3	.	-26	3%[15.4 µM]	1	5%	.	-11%
COc1ccc(NC(=O)CSc2nc(C3CC3)nc3ccccc23)cc1	.	-4	7%	7	11%	-12%	.
CCCCCCNC1=NCCS1	-2.3	-25	-41%[inhibitor]	3	23%	8%	1.8%
CCOC(=O)C1CCCN(S(=O)(=O)c2ccc(Br)c(OC)c2)C1 (stereo not given)	4.3	-8	5%	22	-2%	3%	1.0%
CCN(Cc1cc2ccc(C)cc2[nH]c1=O)C(=O)c1ccncc1	1.5	.	.	-12	.	11%	.
COCCNC(=O)CN(C(=O)CCC(=O)Nc1ccccn1)c1ccc(C)cc1C	-0.3	-3	-4%	10	-9%	-1%	0.5%

Already shown: an excerpt of the list.
SMILES	Menin MLL FP FL	D2 PAM	gsp agonist	TRPV1 potentiator	gsp antagonist	Sfp PPTase inh	ClpP mod
CCN(Cc1cc2ccc(C)cc2[nH]c1=O)C(=O)c1ccncc1	1.5	.	.	-12	.	11%	.
COCCNC(=O)CN(C(=O)CCC(=O)Nc1ccccn1)c1ccc(C)cc1C	-0.3	-3	-4%	10	-9%	-1%	0.5%

Next records follow.
SMILES	Menin MLL FP FL	D2 PAM	gsp agonist	TRPV1 potentiator	gsp antagonist	Sfp PPTase inh	ClpP mod
Cc1ccc(CS(=O)(=O)Cc2ccc(C(=O)NC3CCCC3)o2)cc1	.	-7	7%	3	-7%	-4%	-3.0%
COC(=O)c1ccc2c(=O)n(CCCCCC(=O)O)c(=S)[nH]c2c1	5.5	-18	2%	-7	-3%	-11%	2.9%
Cc1ccc(C(C)C)c(OCCCN2CCc3ccccc3C2)c1	0.8	-72	0%	-23	-5%	-8%	2.0%
CC(C)CN1C=C2C(=O)C(C)(OC(=O)C3CCCC3)C(=O)C=C2C=C1c1ccsc1 (stereo not given)	1.8[11.7 µM]	13	10%	29	9%	16%&3%	-4.3%
COCCN1C=C2C(=O)C(C)(OC(=O)CCC(=O)OC)C(=O)C(Br)=C2C=C1c1ccc(OC)cc1 (stereo not given)	-2.6[11.7 µM]	6	.	.	-15%	-13%	-1.1%
